Screening results (PubChem)
A1 inhib – inducers of caspase activity in MEF A1-2A-BIM cells, primary screen, A1 inhibitor project, cell-based, CaspaseGlo luminescence; caspase-Glo luminescence, 3 h; percent of clofoctol signal, DMSO as zero; caspase activation, % (no concentration beside the values); actives 0.51% (n = 21,000); AID 2241, 2010;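 active = most replicate scores above 10, or exactly half above 10 with mean activity above 10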;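 note: effector caspase 3 and 7 activity cleaving a DEVD luciferin substrate; 50 nL library stock added to about 30 µL; numbers are from one replicate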
BJeLR viability – BJeLR cell viability loss, primary screen, luminescence, CellTiterGlo ATP; BJeLR fibroblasts viability, 48 h; HRASV12, hTERT and SV40 LT/ST transformed; viability loss activity score, % (no concentration beside the values); actives 0.64% (n = 30,000); in the data active = viability loss activity score above about 50%; about a fifth of its hits are not listed in these tables;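 note: higher score means fewer live cells and less ATP luminescence; stock transfer was 50 or 100 nL into about 30 µL; 0% = vehicle wells and 100% = a reference killing control; one replicate is shown; the record names a cut of 85%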
* = called active by the depositor.

What do the screens show for `C[C@H](CO)N1C[C@H](C)[C@@H](CN(C)S(=O)(=O)c2cn(C)cn2)Oc2ccc(NC(=O)Nc3ccc(F)cc3)cc2C1=O`?
A1 inhib: -0.3; BJeLR viability: -3.5

What do the screens show for `N#CC(C#N)=C(N)/C(C#N)=C/c1cc(O)c(O)c(O)c1`?
A1 inhib: -0.2; BJeLR viability: -8.2

Results for COc1cc(/C=C2/C(=N)N3C=CSC3=NC2=O)cc(OC)c1OCCOc1ccc(C)c(C)c1 ?
A1 inhib: -1.2; BJeLR viability: 6.5

What do the screens show for `COc1ccc(CCNC(=O)CSc2nc3c(sc4ccccc43)c(=O)n2CCO)cc1OC`?
A1 inhib: -0.7; BJeLR viability: -3.2

How did CCc1ccc(NC(=O)c2cc3c(=O)n(CC)c4ccccc4c3s2)cc1 do in these assays?
BJeLR viability: 3.4

What do the screens show for `COC(=O)c1c2ccccc2c(C)c2ccccc12`?
A1 inhib: 2.0; BJeLR viability: -2.0

What do the screens show for `CNC(=O)Cc1nnc(-c2ccc(C)cc2)o1`?
BJeLR viability: -4.3

How did O=c1c(-c2c(O)cc(O)c3c(=O)cc(-c4ccc(O)cc4)oc23)c(-c2ccc(O)cc2)oc2cc(O)cc(O)c12 do in these assays?
A1 inhib: 0.6; BJeLR viability: 7.5

How did CNC[C@@H]1Oc2c(N)cccc2C(=O)N([C@@H](C)CO)C[C@H]1C do in these assays?
BJeLR viability: -3.2

How did CC(C)NC(=O)Nc1cccc2c1O[C@H](CN(C)C(=O)Nc1ccc3c(c1)OCO3)[C@H](C)CN([C@H](C)CO)C2=O do in these assays?
BJeLR viability: 4.5

How did CCn1c(Cn2nnc3ccccc32)nnc1SCC(=O)c1ccc(Br)cc1 do in these assays?
A1 inhib: -0.5; BJeLR viability: -6.8

How did COc1cc2c(cc1OC)C(COc1ccc3c(C)cc(=O)oc3c1)N(C(=O)C1CC1)CC2 (centres undefined) do in these assays?
BJeLR viability: -2.4

What do the screens show for `CCOC(=O)c1cccc(NC(=O)C(C)(C)CC)c1`?
A1 inhib: -0.3; BJeLR viability: 1.1

What do the screens show for `C[C@@H]1CN([C@H](C)CO)C(=O)c2cc(NC(=O)C3CCCCC3)ccc2O[C@@H]1CN(C)C(=O)NC1CCCCC1`?
A1 inhib: 0.9; BJeLR viability: -4.6

Results for CCNC(=S)N1N=C2c3ccccc3CCC2C1c1ccc(F)cc1 (centres undefined) ?
A1 inhib: 0.9; BJeLR viability: 31

How did C[C@H]1CN([C@@H](C)CO)C(=O)c2cc(NC(=O)CCC(F)(F)F)ccc2O[C@@H]1CN(C)Cc1ccc(C(=O)O)cc1 do in these assays?
A1 inhib: 0.1; BJeLR viability: 1.1

How did C[C@H]1CN([C@@H](C)CO)C(=O)c2cc(NC(=O)CCC(F)(F)F)ccc2O[C@H]1CN(C)C(=O)Nc1cccc2ccccc12 do in these assays?
A1 inhib: 0.1; BJeLR viability: -6.8

Results for CNC[C@@H]1Oc2c(NC(=O)c3nc4ccccc4s3)cccc2C(=O)N([C@H](C)CO)C[C@H]1C ?
BJeLR viability: -2.0

Results for C[C@@H]1CN([C@H](C)CO)C(=O)c2cc(NS(=O)(=O)c3ccccc3)ccc2O[C@@H]1CN(C)S(C)(=O)=O ?
A1 inhib: -0.8; BJeLR viability: -0.7

What do the screens show for `CCOC(=O)N1CCN(C(=O)CSc2ccc(-c3cccs3)nn2)CC1`?
A1 inhib: -0.2; BJeLR viability: -3.3

How did O=C(NCCc1ccc(Cl)cc1)C(c1ccccc1)c1ccccc1 do in these assays?
A1 inhib: -0.8; BJeLR viability: 0.0

Results for CC(C)CCCC(C)(O)c1ccc(C(=O)O)cc1O (centres undefined) ?
A1 inhib: 0.7; BJeLR viability: -2.6

What do the screens show for `C[C@H](CO)N1C[C@H](C)[C@@H](CN(C)Cc2ccc(-c3ccccc3)cc2)Oc2ccc(NC(=O)CCN3CCOCC3)cc2C1=O`?
A1 inhib: -0.4; BJeLR viability: 7.6

How did CC(=O)O[C@@H]1CC2C(C)(C)[C@H](O)C[C@H](O)[C@]2(C)C2CC[C@@]3(C)[C@H](c4ccoc4)OC(=O)[C@H]4O[C@]43[C@@]21C (some centres undefined) do in these assays?
A1 inhib: 0.7; BJeLR viability: -1.6

How did O=c1ccc2ccc(O)c(O)c2o1 do in these assays?
A1 inhib: 0.8; BJeLR viability: -3.4

How did C[C@H](CO)N1C[C@H](C)[C@H](CN(C)C(=O)Nc2ccc3c(c2)OCO3)Oc2ccc(NC(=O)c3ccncc3)cc2C1=O do in these assays?
A1 inhib: -0.5; BJeLR viability: 2.8

Results for C[C@@H]1CN([C@@H](C)CO)C(=O)c2cc(NC(=O)Nc3ccccc3)ccc2O[C@H]1CN(C)S(=O)(=O)c1cccs1 ?
A1 inhib: 0.0; BJeLR viability: 0.2

How did Cc1cc(Nc2ccc(F)c(Cl)c2)nc(NC(=O)C(C)(C)C)n1 do in these assays?
A1 inhib: 0.6; BJeLR viability: -4.2

Results for Cc1ccc(S(=O)(=O)Nc2ccc3c(c2)C(=O)N([C@H](C)CO)C[C@@H](C)[C@@H](CN(C)Cc2ccc(Cl)c(Cl)c2)O3)cc1 ?
A1 inhib: 1.2; BJeLR viability: 2.0

Results for CCOC(=O)CSc1nnc(-c2ccccc2)c(=O)n1-c1ccccc1 ?
A1 inhib: -0.5; BJeLR viability: -1.0

How did COc1cccc(CC(=O)NC2CCN(c3ncc(C(F)(F)F)cc3Cl)CC2)c1 do in these assays?
BJeLR viability: -2.5

What do the screens show for `O=c1c2ccccc2nc(SCc2cccc(F)c2)n1C1CC1`?
A1 inhib: -0.7; BJeLR viability: 2.1

How did C[C@H](CO)N1C[C@H](C)[C@@H](CN(C)C(=O)Nc2cccc3ccccc23)Oc2c(NC(=O)C3CCOCC3)cccc2C1=O do in these assays?
BJeLR viability: -5.7

What do the screens show for `CC(C)NC(=O)Nc1cccc2c1O[C@@H](CN(C)C(=O)Nc1ccc3c(c1)OCO3)[C@@H](C)CN([C@@H](C)CO)C2=O`?
BJeLR viability: -5.7

How did CCOC(=O)c1sc2cc(OC)ccc2c1Cl do in these assays?
A1 inhib: -1.6; BJeLR viability: -4.1

Results for C[C@@H]1CN([C@@H](C)CO)C(=O)c2cc(NC(=O)Cn3cnnn3)ccc2O[C@@H]1CN(C)S(=O)(=O)c1cccs1 ?
A1 inhib: -0.4; BJeLR viability: 1.0

Results for c1ccc(Nc2c(-c3ccc(N4CCOCC4)cc3)nc3ccccn23)cc1 ?
BJeLR viability: -4.4

How did CCC1=NN(C(=O)COc2ccc(Cl)c(C)c2)C(O)(C(F)(F)F)C1 (centres undefined) do in these assays?
A1 inhib: -1.3; BJeLR viability: 1.8

How did CCC(C)N1C(=O)C2C(C(=O)Nc3cccc(Cl)c3)C3C=CC2(O3)C1C(=O)NC1CCCCC1 (centres undefined) do in these assays?
BJeLR viability: -0.8

Results for Cc1ccc(S(=O)(=O)Nc2ccc3c(c2)C(=O)N([C@H](C)CO)C[C@H](C)[C@@H](CN(C)S(C)(=O)=O)O3)cc1 ?
A1 inhib: -0.1; BJeLR viability: -0.6

Results for Cc1ccc2[nH]c3c(=O)n(CCN4CCCCC4C)cnc3c2c1 (centres undefined) ?
A1 inhib: 1.2; BJeLR viability: 3.6

How did O=C(Cc1ccccc1)N1CCCc2ccccc21 do in these assays?
A1 inhib: 1.1; BJeLR viability: 3.9

How did C[C@@H]1CN([C@@H](C)CO)C(=O)c2cc(NS(=O)(=O)c3cn(C)cn3)ccc2O[C@@H]1CN(C)S(C)(=O)=O do in these assays?
A1 inhib: -0.7; BJeLR viability: 6.0

What do the screens show for `CC(=O)Oc1cccc(C(=O)O)c1OC(C)=O`?
A1 inhib: 0.7; BJeLR viability: 3.1

What do the screens show for `CC(C)NC(=O)N(C)C[C@@H]1Oc2ccc(NS(=O)(=O)c3ccccc3)cc2C(=O)N([C@H](C)CO)C[C@@H]1C`?
A1 inhib: 0.3; BJeLR viability: -0.3

Results for O=C(NCc1ccccc1)c1ccc2nc(-c3cccs3)c(-c3cccs3)nc2c1 ?
A1 inhib: 0.1; BJeLR viability: -2.0

Results for COc1ccc(NC(=O)N(C)C[C@@H]2Oc3c(NC(=O)c4nc5ccccc5s4)cccc3C(=O)N([C@@H](C)CO)C[C@@H]2C)cc1 ?
BJeLR viability: 0.0

Results for COc1ccc(N2CCN(C(=O)CNC(=O)Cn3c(C)cc4ccccc4c3=O)CC2)cc1 ?
BJeLR viability: 3.4

Results for C[C@H](CO)N1C[C@H](C)[C@@H](CN(C)Cc2ccccc2)Oc2ccc(N(C)C)cc2C1=O ?
A1 inhib: -0.5; BJeLR viability: -7.3

How did C[C@@H]1CN([C@H](C)CO)C(=O)c2cccc(NC(=O)Nc3ccc(C(F)(F)F)cc3)c2O[C@H]1CN(C)C(=O)Nc1cccc2ccccc12 do in these assays?
BJeLR viability: -1.6

What do the screens show for `COc1ccc(CN(C)C[C@H]2Oc3c(NS(=O)(=O)c4cn(C)cn4)cccc3C(=O)N([C@@H](C)CO)C[C@@H]2C)cc1`?
BJeLR viability: 5.9

Results for C[C@H]1CN([C@@H](C)CO)C(=O)c2cc(NC(=O)CCCCCC(=O)Nc3ccccc3N)ccc2O[C@@H]1CN(C)S(=O)(=O)c1ccccc1 ?
BJeLR viability: -11

How did N#CCCN(C(=O)c1ccc2c(=O)n3c(nc2c1)CCCC3)c1ccccc1 do in these assays?
A1 inhib: 2.4; BJeLR viability: -1.5

How did C[C@@H]1CN([C@@H](C)CO)C(=O)c2cc(N(C)C)ccc2O[C@@H]1CN(C)C(=O)Nc1ccccc1 do in these assays?
A1 inhib: 0.0; BJeLR viability: -1.5

What do the screens show for `Cc1noc(C)c1NC(=O)Nc1cccc2c1O[C@@H](CN(C)C(=O)Nc1ccc(F)cc1)[C@H](C)CN([C@@H](C)CO)C2=O`?
BJeLR viability: 0.2

How did CS(=O)(=O)CS(=O)(=O)C1=C(N2CCOCC2)C2CCN1CC2 do in these assays?
A1 inhib: -0.3; BJeLR viability: -3.6

Results for COc1cc(OC)c(N(C)C(=O)c2ccc3c(=O)n4c(nc3c2)CCCCC4)cc1Cl ?
A1 inhib: 0.3; BJeLR viability: 4.4

Results for CC(O)(C(=O)Nc1ccc(S(=O)(=O)c2ccccc2)cc1)C(F)(F)F (centres undefined) ?
A1 inhib: 0.3; BJeLR viability: 7.3

How did O=C(c1ccc(C(=O)N2CCc3ccccc3C2)cc1)N1CCc2ccccc2C1 do in these assays?
A1 inhib: 0.6; BJeLR viability: 1.2

Results for N#C/C(=C(/N)Sc1ccc(N)cc1)c1ccccc1C(F)(F)F ?
A1 inhib: 2.1; BJeLR viability: -7.3

An excerpt from further up:
Results for C[C@H](CO)N1C[C@H](C)[C@@H](CN(C)Cc2ccccc2)Oc2ccc(N(C)C)cc2C1=O ?
A1 inhib: -0.5; BJeLR viability: -7.3

How did C[C@@H]1CN([C@H](C)CO)C(=O)c2cccc(NC(=O)Nc3ccc(C(F)(F)F)cc3)c2O[C@H]1CN(C)C(=O)Nc1cccc2ccccc12 do in these assays?
BJeLR viability: -1.6

What do the screens show for `COc1ccc(CN(C)C[C@H]2Oc3c(NS(=O)(=O)c4cn(C)cn4)cccc3C(=O)N([C@@H](C)CO)C[C@@H]2C)cc1`?
BJeLR viability: 5.9

Results for C[C@H]1CN([C@@H](C)CO)C(=O)c2cc(NC(=O)CCCCCC(=O)Nc3ccccc3N)ccc2O[C@@H]1CN(C)S(=O)(=O)c1ccccc1 ?
BJeLR viability: -11

How did N#CCCN(C(=O)c1ccc2c(=O)n3c(nc2c1)CCCC3)c1ccccc1 do in these assays?
A1 inhib: 2.4; BJeLR viability: -1.5

How did C[C@@H]1CN([C@@H](C)CO)C(=O)c2cc(N(C)C)ccc2O[C@@H]1CN(C)C(=O)Nc1ccccc1 do in these assays?
A1 inhib: 0.0; BJeLR viability: -1.5

What do the screens show for `Cc1noc(C)c1NC(=O)Nc1cccc2c1O[C@@H](CN(C)C(=O)Nc1ccc(F)cc1)[C@H](C)CN([C@@H](C)CO)C2=O`?
BJeLR viability: 0.2

How did CS(=O)(=O)CS(=O)(=O)C1=C(N2CCOCC2)C2CCN1CC2 do in these assays?
A1 inhib: -0.3; BJeLR viability: -3.6

Results for COc1cc(OC)c(N(C)C(=O)c2ccc3c(=O)n4c(nc3c2)CCCCC4)cc1Cl ?
A1 inhib: 0.3; BJeLR viability: 4.4

Results for CC(O)(C(=O)Nc1ccc(S(=O)(=O)c2ccccc2)cc1)C(F)(F)F (centres undefined) ?
A1 inhib: 0.3; BJeLR viability: 7.3

How did O=C(c1ccc(C(=O)N2CCc3ccccc3C2)cc1)N1CCc2ccccc2C1 do in these assays?
A1 inhib: 0.6; BJeLR viability: 1.2

Results for N#C/C(=C(/N)Sc1ccc(N)cc1)c1ccccc1C(F)(F)F ?
A1 inhib: 2.1; BJeLR viability: -7.3

(next part)
Results for COc1ncccc1C(=O)Nc1ccc(F)cc1F ?
A1 inhib: -1.4; BJeLR viability: -2.8

Results for CC(=O)N(CN1C(=O)C2CC=CCC2C1=O)c1ccccc1 (centres undefined) ?
A1 inhib: -0.3; BJeLR viability: 4.3

Results for CN(C)/C=C/C=C1\CCc2ccccc2C1=O ?
BJeLR viability: 2.4

Results for CNC[C@H]1Oc2ccc(N(C)C)cc2C(=O)N([C@H](C)CO)C[C@@H]1C ?
A1 inhib: -0.5; BJeLR viability: 1.5

Results for Cc1cc(C)cc(CC2CC(=O)N(CCc3ccc4c(c3)OCO4)C2=O)c1 (centres undefined) ?
A1 inhib: -1.2; BJeLR viability: 1.7

What do the screens show for `CC(=O)Nc1sc2c(c1CN1CCN(c3ccccn3)CC1)CCCC2`?
A1 inhib: 0.0; BJeLR viability: 0.3

How did CSc1nnc(CNC(=O)OC(C)(C)C)n1C do in these assays?
A1 inhib: 1.0; BJeLR viability: -3.4

How did COc1ccccc1NC(=O)CSc1ncnc2c1nnn2Cc1ccccc1 do in these assays?
A1 inhib: -1.0; BJeLR viability: 7.0

Only part of the results is shown; rates above refer to the full screens.
